# PKD1 kinase inh = PKD1 (human) kinase inhibition | inhibition, %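 (about 10 µM by stock and volumes)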 | Q15139 | PKD1 kinase fluorescence polarization assay | 200,000 tested, 0.056% active;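 active means inhibition of 50% or more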;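 further: controls were vehicle for no effect and a reference inhibitor for full effect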
# HSV replic up = HSV replication enhancement; HSV replication augmentation in cells, fold increase; maximum fold increase; 220,000 tested, 0.005% active; AID 1956;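 active means peak rise of 1.5-fold or more in the series; tested in PC3 cells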;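 further: first round at 10 µM; read as green reporter fluorescence; hits show the peak of a series up to 25 µM; 1 = signal of infected wells without compound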
# GALR2 agonist = agonists of human galanin receptor 2 (GALR2) | GALR2-expressing cells, agonist activation read-out | O43603 | 140,000 tested, 0.48% active | activation, %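 (tested at 5 µM)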;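 active means above mean plus 3 SD of all compounds, about 5% in these data, not always enough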;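 further: 0% = vehicle buffer wells and 100% = reference agonist at full effect; tested in CHO reporter cells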
# Target sequence (O43603 whole entry, looked up): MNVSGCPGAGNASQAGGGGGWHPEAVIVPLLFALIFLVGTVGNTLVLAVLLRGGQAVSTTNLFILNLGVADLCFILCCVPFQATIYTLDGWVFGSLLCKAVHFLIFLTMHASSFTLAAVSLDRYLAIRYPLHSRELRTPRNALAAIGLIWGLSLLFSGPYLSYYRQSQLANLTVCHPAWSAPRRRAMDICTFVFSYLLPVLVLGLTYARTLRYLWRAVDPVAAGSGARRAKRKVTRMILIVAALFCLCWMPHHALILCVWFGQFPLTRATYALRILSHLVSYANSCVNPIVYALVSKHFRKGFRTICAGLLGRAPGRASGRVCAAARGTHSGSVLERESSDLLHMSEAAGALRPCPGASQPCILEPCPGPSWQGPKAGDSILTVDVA
# RGS16-Gao = RGS16-Galphao interaction regulator (human); O15492+P09471; bead-based flow cytometry RGS16-Galphao binding, fluorescence; actives lie on both sides; 220,000 tested, 0.38% active; binding response (% of control), % at 10 µM;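 active means below 25% or above 175%, edge rows of some plates excepted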;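 further: Galphao activated by GDP with aluminum fluoride before binding; 100% = wells without compound and 0% = beads without RGS; some results beyond the cut were filed as inactive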
# Target sequence (O15492 whole entry, looked up): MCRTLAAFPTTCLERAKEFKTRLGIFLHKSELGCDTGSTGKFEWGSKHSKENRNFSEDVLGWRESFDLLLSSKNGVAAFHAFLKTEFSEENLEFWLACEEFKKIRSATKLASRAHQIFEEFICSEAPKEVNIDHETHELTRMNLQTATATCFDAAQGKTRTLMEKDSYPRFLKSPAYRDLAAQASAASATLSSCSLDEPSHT
# Target sequence (P09471 whole entry, looked up): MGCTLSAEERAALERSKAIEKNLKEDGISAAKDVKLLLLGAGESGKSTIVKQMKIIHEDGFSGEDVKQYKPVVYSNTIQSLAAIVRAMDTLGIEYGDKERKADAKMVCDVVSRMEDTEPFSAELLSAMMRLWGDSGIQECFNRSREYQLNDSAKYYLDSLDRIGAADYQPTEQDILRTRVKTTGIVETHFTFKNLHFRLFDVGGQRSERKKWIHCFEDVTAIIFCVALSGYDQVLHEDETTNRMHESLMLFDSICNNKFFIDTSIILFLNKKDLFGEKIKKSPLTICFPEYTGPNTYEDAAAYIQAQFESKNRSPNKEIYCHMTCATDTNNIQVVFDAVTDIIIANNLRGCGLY
# INS promoter inh = TRM-6 insulin promoter activity inhibition. TRM-6 cells (human fetal islet line), insulin promoter-eGFP reporter, imaging; reporter expression induced with tamoxifen. inhibition, % at 2 µM. 130,000 tested, 0.9% active;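 active means inhibition above the mean plus 3 SD, with well images judged a real hit on visual review, cut at about 60% in these data, passing the limit was not always enough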
# INS promoter inh cell count = recorded beside INS promoter inh, whose call it bears; normalized cell count, %; measured here: cell count, toxicity; reference of the scale not given here;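 cells exposed to compound for 48 h; stained nuclei by imaging scaled within each plate; lower means fewer cells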
# HSV replic up primary fold = second read-out of HSV replic up, no call of its own (marks repeat the call); fold increase; compound at 10 µM; measured here: primary screen fold increase 10 uM; tested in PC3 cells;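 GFP signal in the first replicate; 1 = infected wells without compound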
# The depositor's hits bear a star; i = inactive; nt = not tested or not shown.
SMILES,PKD1 kinase inh,HSV replic up,HSV replic up primary fold,GALR2 agonist,RGS16-Gao,INS promoter inh,INS promoter inh cell count
N#Cc1c(NC(=O)CCC(=O)O)sc2c1CCCCC2,1,i,1,nt,116,-13,126
CC(C)C(=O)Nc1cccnc1,nt,i,0.94,nt,105,nt,nt
CC1(C)Cc2c(sc3nc(NCCN4CCOCC4)n4ncnc4c23)CO1,17,i,0.82,0.5,108,nt,nt
O=C(CN1CCC(Cc2ccccc2)CC1)Nc1ccc2c(c1)OCCO2,-7,i,1.1,-3.7,116,-1,68
Cc1cc(C)n(CCOc2nonc2N)n1,-1,i,1.2,-0.7,103,nt,nt
CC(C)NCc1nnc(-c2ccc(Cl)cc2)o1,-8,i,0.95,nt,104,-20,94
O=C(Nc1ccc2oc(-c3ccncc3)nc2c1)c1ccc2c(c1)OCO2,nt,i,0.95,nt,103,nt,nt
CCOC(=O)c1ccc(NC(=O)N2CCN(C3CCCCC3)CC2)cc1,-2,i,0.92,-1.8,108,19,110
O=C(CCCC(=O)NC1CCCC1)NC1CCCC1,-3,i,1,-0.5,95,5,97
CCCCC(=O)NC(=S)Nc1ccc(S(=O)(=O)N2CCCC2)cc1,12,i,0.91,-1.4,107,26,168
Cc1ccccc1Nc1nc(-c2sc(NC(=O)c3ccccc3)nc2C)cs1,1,i,0.91,19*,104,nt,nt
O=C(c1cccc2ccccc12)N1CCN(c2ccc([N+](=O)[O-])c(NCc3ccco3)c2)CC1,-5,i,0.66,-1.3,106,-29,88
Fc1ccc(NCc2cccnc2)cc1F,2,i,1.1,-0.3,106,-6,53
CCCC(C)C(=O)OCC(=O)Nc1c(Br)cc(C)cc1Br (stereo not given),3,i,0.98,-3.0,100,46,116
COc1ccc(-c2[nH]ncc2CNCCCSC)cc1F,0,i,0.97,nt,122,27,90
CN(C)/C=C/C(=O)c1nn(-c2ccc(F)cc2)ccc1=O,nt,i,0.96,nt,99,nt,nt
O=[N+]([O-])c1ccc(N2CCN(S(=O)(=O)c3ccccc3)CC2)cc1NCc1cccnc1,-12,i,0.95,0.5,103,7,62
CCC(CCC(=O)NNC(=O)Cc1ccc([N+](=O)[O-])cc1)C(=O)O (stereo not given),nt,i,0.76,nt,99,nt,nt
CSC(=NC#N)N1CCN(c2ccccc2)CC1,1,i,0.94,0.3,100,nt,nt
Cc1cc(OCCN2CCCCCC2)ccc1[N+](=O)[O-],-2,i,1.1,-0.8,101,nt,nt
CN(C)c1cccc2c1c(NC(=O)c1ccc(F)cc1)nn2C,nt,i,0.93,nt,97,nt,nt
COc1ccc(C(C)NC(=O)C2C(=O)NC3(C)CC2c2ccccc2O3)cc1 (stereo not given),10,i,1,-1.0,103,nt,nt
CSCCC(NC(=O)COc1ccccc1)C(=O)O (stereo not given),-4,i,1.1,nt,102,40,68
COc1ccc(C2C3=C(OC(C)=O)c4ccccc4C3=Nc3c2c(=O)n(C)c(=O)n3C)cc1 (stereo not given),-5,i,0.8,-1.1,104,39,120
CC1CC(C)CN(S(=O)(=O)c2ccc(NC(=O)C3COc4ccccc4O3)cc2)C1 (stereo not given),-12,i,1.3,0.4,97,nt,nt
SMILES,PKD1 kinase inh,HSV replic up,HSV replic up primary fold,GALR2 agonist,RGS16-Gao,INS promoter inh,INS promoter inh cell count
CP(=O)(COC(=O)c1ccccc1)COC(=O)c1ccccc1,-3,i,1,-1.0,105,nt,nt
Cc1cc2cc(CCNS(C)(=O)=O)c(=O)[nH]c2cc1C,-10,i,1.1,-0.4,92,27,48
Cc1cc(C)n(Cc2ccc(C(=O)O)cc2)n1,7,i,0.93,-3.8,110,6,105
COc1ccccc1/C=C/CN1CC(C)OC(C)C1 (stereo not given),2,i,1.1,-1.4,98,-11,50
Cc1nn(C)c(C)c1NC(=O)CSc1nnc(C)n1-c1ccccc1,11,i,1,-1.4,93,22,114
CCOc1ccccc1C(=O)N(CN1CCCC1=O)c1ccc(C)c(Cl)c1,-2,i,1.2,-2.6,98,nt,nt
CCOC(=O)N1CCN(C(=O)Cn2ccc3c(OC)cccc3c2=O)CC1,-9,i,1,nt,98,nt,nt
COCCNc1nc(N)c([N+](=O)[O-])c(NCCO)n1,1,i,1,-2.7,93,nt,nt
CCCC(=O)n1nc(-c2cccnc2)nc1N,-2,i,0.76,-1.0,103,94*,61*
Cn1c(-c2c(N)n(CCCc3ccccc3)c3nc4ccccc4nc23)nc2ccccc21,-7,i,1.1,0.3,97,-28,55
Cc1cc(N/C=C2\CCCCC2=O)no1,-2,i,0.93,-1.3,109,17,126
CCOc1ccc(NC(=O)c2c3c(nc4ccccc24)CCC3)cc1,-6,i,0.94,nt,94,nt,nt
COC(=O)c1[nH]c2ccccc2c1NC(=O)c1ccccc1[N+](=O)[O-],0,i,1.1,-0.7,105,-23,104
Cc1cc(C)cc(N(CC(=O)N2CCc3ccccc32)S(=O)(=O)c2c(C)noc2C)c1,-15,i,1,-2.2,101,nt,nt
CCCNC(=O)C1CCN(S(=O)(=O)c2ccc3nc4c(c(C(=O)O)c3c2)CCCCC4)CC1,-4,i,0.97,-1.0,101,nt,nt
CCOC(=O)N1CCN(C(=O)c2ccccc2NC(=O)COc2ccccc2C)CC1,5,nt,nt,-1.5,92,nt,nt
O=C(Nc1ccc(F)cc1F)N1CCCN(c2ccc([N+](=O)[O-])cn2)CC1,nt,i,1.1,nt,92,nt,nt
CC(=O)C1C(c2ccc(Cl)cc2)NC(=O)NC1(O)C(F)(F)F (stereo not given),-10,i,0.93,1.5,107,nt,nt
CCc1cc2c(NCC(=O)O)ncnc2s1,0,i,0.94,-1.3,98,nt,nt
COC(=O)c1cccc(S(=O)(=O)N(Cc2ccco2)Cc2cc3ccc(OC)cc3[nH]c2=O)c1,3,i,0.87,-0.6,101,50,89
COc1ccc(Cc2nnc(NC(=O)c3ccc(Cl)c([N+](=O)[O-])c3)s2)cc1,-3,i,0.95,-0.4,98,38,82
CCOC(=O)CSc1nnc(-c2ccc(S(=O)(=O)NCc3cccs3)cc2)o1,-15,i,1.1,-1.6,nt,50,95
c1ccc2nc(-c3nccs3)ccc2c1,1,i,0.99,nt,98,nt,nt
O=C(NCc1ccco1)C(=S)N1CCCCC1,-2,i,1,nt,97,nt,nt
CO[C@H]1C=CO[C@@]2(C)Oc3c(C)c(O)c4c(O)c(c5c(nc6cc(C)ccn65)c4c3C2=O)NC(=O)C(C)=CC=C[C@H](C)[C@H](O)[C@@H](C)[C@@H](O)[C@@H](C)[C@H](OC(C)=O)[C@@H]1C,nt,i,0.62,nt,98,nt,nt
SMILES,PKD1 kinase inh,HSV replic up,HSV replic up primary fold,GALR2 agonist,RGS16-Gao,INS promoter inh,INS promoter inh cell count
O=C(O)CCCNc1ccc(S(=O)(=O)Nc2ccccc2C(=O)O)cc1C(=O)O,4,i,0.94,-1.6,108,nt,nt
O=C(CCNC(=O)c1ccccc1Cl)Nc1nc(-c2ccc(F)cc2)cs1,6,i,1.1,-0.7,101,nt,nt
Cc1ccc(-c2nn(CC(=O)Nc3cccnc3)c(=O)c3ccccc23)cc1,-1,i,0.84,0.1,107,27,122
Cc1ccc2nc(N3CCN(Cc4nnnn4Cc4ccccc4)CC3)c(C#N)cc2c1,-8,i,0.99,0.0,78,nt,nt
Cc1nnc(SCC(=O)Nc2nccs2)[nH]c1=O,-5,i,1,-2.5,104,50,42
COc1ccc(C(=O)N2CCN(Cc3cn[nH]c3-c3ccc(OC)cc3F)CC2)cc1,-1,i,1,nt,92,nt,nt
C=CCOC(=O)C1=C[C@@H](c2ccc(Br)cc2)[C@H](CCCO)[C@@H](OCC)O1,4,i,1,nt,128,nt,nt
CN(CC(=O)Nc1ccc(S(=O)(=O)N2CCCC2)cc1)Cc1cccc(Cl)c1Cl,12,i,0.87,0.7,78,-21,58
CN1C(C(=O)NCc2cccc(C(F)(F)F)c2)CC2Cn3c(nc4ccccc43)C21 (stereo not given),nt,i,0.92,nt,95,nt,nt
Cc1cccc(N(CC(O)CN(C)C)S(=O)(=O)c2ccccc2)c1 (stereo not given),-12,i,0.96,-0.9,97,21,148
COc1ccc(/C=C/C(=O)NC(C)C)cc1Br,0,i,0.99,-1.8,102,61,115
Cc1[nH]c(=O)[nH]c(=O)c1NC(=O)c1cccs1,-9,i,1.2,-2.4,102,8,100
Cn1c(=O)n(C)c2cc(S(=O)(=O)O)ccc21,-3,i,0.97,-1.4,97,12,93
O=C(O)C1CC(=O)N(C2CCCCC2)C1c1ccccc1 (stereo not given),-2,i,0.93,-1.1,116,-67,123
COCCNC(=O)c1ccc2c(=O)n(CCOC)c(=O)[nH]c2c1,-12,i,0.92,-2.2,102,nt,nt
CCOc1ccc2[nH]c(=O)c(CN(CC3CCCN3CC)C(=O)NCc3ccccc3)cc2c1 (stereo not given),-6,i,1,0.1,102,-72,127
Cc1cc2n(n1)C(c1ccc3c(c1)OCO3)Nc1ccccc1-2 (stereo not given),4,i,0.87,-1.5,98,nt,nt
CCOC(=O)c1c(-c2ccccc2)csc1NC(=O)CSc1ccccc1,-1,i,1.1,-1.5,103,nt,nt
Cc1nc(SCC(=O)c2ccccc2)c(C#N)c(-c2ccco2)c1C(=O)NCc1ccco1,-7,i,0.94,-0.5,94,-26,39
Cc1ccccc1-n1nc(C)c2c1N=C1C(Cl)=CC(Cl)=CN1C2c1ccc(C(=O)O)cc1 (stereo not given),2,i,1,-1.6,104,-14,138
O=C(COc1ccccc1)Nc1ccc2[nH]c(=O)[nH]c2c1,0,i,1,nt,106,nt,nt
O=c1c2ccccc2ncn1-c1cccc(Cl)c1,-4,i,0.88,-1.2,106,-323,32
Cc1nnc(SCc2nc3scc(-c4ccccc4)c3c(=O)[nH]2)s1,nt,i,1.2,nt,96,nt,nt
O=C(Cc1ccc([N+](=O)[O-])cc1)c1ccc(O)cc1O,nt,i,1,nt,115,nt,nt
Cc1cccc(C)c1-n1c(C)cc(/C=N/NC(N)=S)c1C,-3,i,0.88,-0.7,102,3,133
SMILES,PKD1 kinase inh,HSV replic up,HSV replic up primary fold,GALR2 agonist,RGS16-Gao,INS promoter inh,INS promoter inh cell count
COc1ccc(/C=N/n2cnc3c([nH]c4ccc(F)cc43)c2=O)cc1CSc1ccccn1,nt,i,0.63,nt,99,nt,nt
Cc1nc(CNS(=O)(=O)c2cc(C)c(C)cc2C)cs1,-3,i,0.93,-3.4,90,7,87
CCc1nnc(NS(=O)(=O)c2ccc(NC(=S)NC(=O)c3ccncc3)cc2)s1,nt,i,0.89,nt,100,nt,nt
Cc1cccc(NC(=O)CN2C(=O)S/C(=C\c3ccccn3)C2=O)c1,-2,i,0.97,nt,106,-56,128
NC1=NC(=O)/C(=C\c2cc([N+](=O)[O-])ccc2Cl)S1,2,i,0.64,nt,103,nt,nt
COC(=O)c1cccc(COC(=O)c2ccc(N(C)C)cc2)c1,-2,i,0.86,-3.1,105,-17,88
CCSc1nc(=S)n(-c2ccccc2)c(C)c1C(C)=O,-4,i,0.99,-4.5,97,6,103
Cc1ccc(C2CC(C(F)(F)F)n3ncc(C(N)=O)c3N2)cc1 (stereo not given),2,i,0.99,-0.9,97,8,82
Cc1ccn2cc(C(=O)Nc3nnc(C)s3)nc2c1,-3,i,0.95,-1.2,103,nt,nt
O=C(C[n+]1ccccc1)N/N=C/c1ccc(F)cc1,-3,i,1,nt,107,nt,nt
C=CCONC(=O)c1cc(OCC(F)(F)F)ccc1OCC(F)(F)F,0,i,0.88,-1.5,99,-38,68
COc1ccccc1-c1nnc2n1N=C(c1ccc(O)c(O)c1)CS2,9,i,0.58,1.3,22,nt,nt
CCCCCc1nnc(NC(=O)c2ccc(=O)n(C)n2)s1,-4,i,0.97,nt,103,nt,nt
Cc1ccc(NC(=O)CN2C(=O)C3CCCCN3C(=O)c3ccccc32)cc1 (stereo not given),-4,i,0.99,-1.2,106,-28,144
COc1ccc(C(=O)N/N=C(\C)Cn2nc([N+](=O)[O-])cc2C)cc1,-16,i,0.92,-1.2,98,nt,nt
C=CCOC(=O)c1[nH]c2c(c1C)C(=O)CC(c1cc(OC)c(OC)c(OC)c1)C2 (stereo not given),2,i,0.99,0.0,104,nt,nt
Cc1cc(C(=O)OCC(=O)c2ccc(Br)s2)c(C)o1,-9,nt,nt,-2.0,86,nt,nt

# Of the compounds above, these contain a furan ring, fused or not:
SMILES,PKD1 kinase inh,HSV replic up,HSV replic up primary fold,GALR2 agonist,RGS16-Gao,INS promoter inh,INS promoter inh cell count
O=C(c1cccc2ccccc12)N1CCN(c2ccc([N+](=O)[O-])c(NCc3ccco3)c2)CC1,-5,i,0.66,-1.3,106,-29,88
COC(=O)c1cccc(S(=O)(=O)N(Cc2ccco2)Cc2cc3ccc(OC)cc3[nH]c2=O)c1,3,i,0.87,-0.6,101,50,89
O=C(NCc1ccco1)C(=S)N1CCCCC1,-2,i,1,nt,97,nt,nt
Cc1nc(SCC(=O)c2ccccc2)c(C#N)c(-c2ccco2)c1C(=O)NCc1ccco1,-7,i,0.94,-0.5,94,-26,39
Cc1cc(C(=O)OCC(=O)c2ccc(Br)s2)c(C)o1,-9,nt,nt,-2.0,86,nt,nt

# Screening results from PubChem.
